KCNQ2 block: KCNQ2 potassium channel inhibitors, primary screen, cell-based, CHO-K1, FluxOR thallium flux, B-score (AID 2156); O88943; 20 min; stronger effect = lower value; only compounds with negative scores are shown here; some inactives read as strong as hits; B-score at 10 µM; 1.1% of 310,000 active;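 active = fluorescence ratio B-score at most minus 3 library SDs, with starting brightness B-score within 2 library SDs, cut at about -5.5 in these data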
Target sequence (O88943 whole entry, looked up): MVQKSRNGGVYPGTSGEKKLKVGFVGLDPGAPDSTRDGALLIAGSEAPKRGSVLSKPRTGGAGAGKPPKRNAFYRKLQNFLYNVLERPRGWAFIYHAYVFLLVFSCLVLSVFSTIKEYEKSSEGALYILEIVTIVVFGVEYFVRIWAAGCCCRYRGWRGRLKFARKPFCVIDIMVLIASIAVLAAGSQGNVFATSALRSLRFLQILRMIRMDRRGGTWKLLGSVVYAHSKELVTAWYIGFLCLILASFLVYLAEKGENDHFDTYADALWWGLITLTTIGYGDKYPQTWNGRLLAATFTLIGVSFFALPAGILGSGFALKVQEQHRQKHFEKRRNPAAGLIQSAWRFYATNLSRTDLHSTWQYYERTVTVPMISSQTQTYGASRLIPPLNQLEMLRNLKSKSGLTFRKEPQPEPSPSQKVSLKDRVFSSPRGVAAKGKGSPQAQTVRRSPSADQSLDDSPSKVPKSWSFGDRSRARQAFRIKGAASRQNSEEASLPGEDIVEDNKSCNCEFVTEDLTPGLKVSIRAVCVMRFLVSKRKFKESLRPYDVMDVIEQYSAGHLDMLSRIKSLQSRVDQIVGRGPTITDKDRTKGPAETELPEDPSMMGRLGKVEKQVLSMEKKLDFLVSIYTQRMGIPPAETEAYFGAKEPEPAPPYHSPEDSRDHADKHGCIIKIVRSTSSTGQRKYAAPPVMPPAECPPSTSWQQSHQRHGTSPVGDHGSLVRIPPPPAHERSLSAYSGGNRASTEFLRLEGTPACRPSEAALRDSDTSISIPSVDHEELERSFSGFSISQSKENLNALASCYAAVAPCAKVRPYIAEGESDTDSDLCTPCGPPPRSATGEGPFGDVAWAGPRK
KCNQ2 block baseline: also measured in KCNQ2 block; calls as there; B-score; measured here: initial fluorescence intensity artifact check;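 brightness before thallium and not channel activity; 0 = typical well and far values either way flag optical interference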
Numbers without * were called inactive; i = inactive. An excerpt (hit frequency here may not be typical).

SMILES	KCNQ2 block	KCNQ2 block baseline
Cc1nn(CC(=O)NCCCN2C(C)CCCC2C)c(=O)c2cc3occc3n12 (configuration not stated)	i	0.47
Cc1ccc(C(=O)C[n+]2cccc3cc(C)ccc32)cc1	i	-1.2
CC(C)CC(NS(=O)(=O)OCC(Cl)(Cl)Cl)c1ccccc1 (configuration not stated)	i	0.96
O=C(Nc1ccccc1N(C(=O)c1ccco1)S(=O)(=O)c1cccs1)c1ccco1	i	0.72
COC(=O)C1=C(C(=O)OC)[C@@H]2N(C)c3ccc(OC)cc3[C@@]23C[C@@H](C(=O)OC)N(C(=O)COCc2ccccc2)C3=N1	i	0.18
O=C(Cn1cc([N+](=O)[O-])ccc1=O)NCc1ccc(Cl)cc1Cl	i	-1
CCOC(=O)C1CN(S(C)(=O)=O)c2cc(CC(=O)OC)ccc2O1 (configuration not stated)	i	1.1
COc1cccc(C2NC(=O)CCC2[N+](=O)[O-])c1 (configuration not stated)	i	2.1
Cc1nc(SCC(=O)NCCc2ccccc2)c2c(=O)n(C)c(=O)n(C)c2n1	i	1.1
O=C(NCCCn1ccnc1)c1ccc(S(=O)(=O)Nc2ccccc2)cc1	i	2.5
C/C(=N/NS(=O)(=O)c1ccc(C)cc1)c1c(O)c2ccccc2oc1=O	i	-0.07
CN(C)S(=O)(=O)c1ccc(C(=O)NCc2cccs2)cc1	i	0.2
COc1cc(OC)cc(C(=O)OCC(=O)N2CCCC2)c1	i	-0.03
COc1ccc(C2OCC3(CO2)SC(N)=NC3=O)cc1 (configuration not stated)	i	-0.01
CN(C(=O)c1c(Cl)nc2sccn12)C1CCCCC1	i	-2.3
Cc1ccc(N2CCN(Cc3ccccc3)CC2=O)c(C)c1	i	0.74
CCCOc1ccccc1NC(=O)Nc1ccccc1Cl	i	-1.8
COc1ccccc1CNC(=O)c1oc2ccccc2c1C	i	0.73
O=C(NC1CC2CCC1C2)c1ccco1 (configuration not stated)	i	0.33
CCCCN(C(=O)c1c(CC)noc1C)c1c(N)n(CCC)c(=O)[nH]c1=O	i	0.82
COC(=O)c1nc(NC(=O)c2ccc(Cl)cc2)n[nH]1	i	1.3
Cc1ccc(OCC(=O)NCCc2c[nH]c3ccccc23)cc1	i	-0.3
CCCC1(C(=O)O)NC(c2ccc(OC)cc2O)C2C(=O)N(c3ccc(OC)cc3)C(=O)C21 (configuration not stated)	i	1.4
Cc1ccccc1OCC(=O)NNC(=O)c1ccc(-n2cncn2)c([N+](=O)[O-])c1	i	0.91
COc1ccc(S(=O)(=O)N2CCC(C(=O)NCc3cccnc3)CC2)cc1OC	i	0.2
COC(=O)c1cc2ccsc2n1Cc1cccc(F)c1	i	0.02
Cc1cccc(C(=O)NC(=S)NNC(=O)COc2c(C)cccc2C)c1	i	2.5
COc1ccc(-c2sccc2C(C)C(=O)O)cc1 (configuration not stated)	i	-0.99
O=S(=O)(Nc1ccccc1N1CCCCC1)c1ccc(F)cc1	i	-0.34
CS(=O)(=O)Nc1ccc(C(=O)NCCC2=CCCCC2)cc1	i	1.4
Cc1ccc(NC(=O)COC(=O)/C=C/c2cccs2)c(C)c1	i	-1.6
CC1(C)Cc2ccccc2C(=NCCCC(=O)O)N1	i	-0.53
CCOC(=O)C1CCCN(c2cc(C)nc3cc(-c4ccc(F)cc4)nn23)C1 (configuration not stated)	i	-2.6
Cc1cc(NC(=O)c2cc(-c3cccs3)nc3ccccc23)no1	i	-0.16
O=C(Nc1ccnn1C1CCN(Cc2cccnc2)CC1)c1ccccc1Cl	i	-0.24
CCN(CC)CCN(C(=O)c1c(F)cccc1F)c1nc2cc(C)cc(C)c2s1	i	0.32
Cc1cccc(NC(=O)CSCC(=O)Nc2ccc(S(=O)(=O)N3CCCC3)cc2)c1	i	0.43
COc1ccc(N2CCN(C(=O)c3ccc(NS(=O)(=O)c4cccs4)cc3)CC2)cc1	i	4.8
Nc1nnc(SCC(=O)NC2CCCC2)s1	i	-0.41
Cc1ccccc1OCC(=O)NC1CCCCCCC1	i	-1.4

In the list so far, three have a COOH group:
SMILES	KCNQ2 block	KCNQ2 block baseline
CCCC1(C(=O)O)NC(c2ccc(OC)cc2O)C2C(=O)N(c3ccc(OC)cc3)C(=O)C21 (configuration not stated)	i	1.4
COc1ccc(-c2sccc2C(C)C(=O)O)cc1 (configuration not stated)	i	-0.99
CC1(C)Cc2ccccc2C(=NCCCC(=O)O)N1	i	-0.53

Later entries
SMILES	KCNQ2 block	KCNQ2 block baseline
CCCCOC(=O)n1c(=O)oc2cc(S(=O)(=O)N3CCCCC3)ccc21	i	-1.2
CCOc1ccc2c(c1)C(c1ccc(C)cc1)=NNC(c1ccc(C)cc1)=N2	i	0.17
Cc1ccc(NC(=O)NC2C(NC(=O)Nc3ccc(C)cc3)N(C)C(=O)N2C)cc1 (configuration not stated)	i	-1.6
CC(=O)c1ccc(-c2nnc(CCC(=O)N(C)Cc3c(C)nc4ccccn34)o2)s1	i	1.1
Nc1nccc(-c2ccc(-n3cnc4ccccc43)cc2)n1	i	0.02
COc1ccc(S(=O)(=O)n2c(CCN3CCOCC3)nc3ccccc32)cc1	i	1.2
COc1ccc(NC(=O)CN2CCN(c3nc(-c4cccc(OC)c4)cs3)CC2)cc1	i	-0.54
Cc1csc(SCC(=O)NC(=O)NC(C)(C)C)n1	i	0.6
CN(C)CC(C)(C)CNS(=O)(=O)CC12CCC(CC1=O)C2(C)C (configuration not stated)	i	-1
Cc1ccc(S(=O)(=O)N2CCC(=O)N(C(COCc3cccc(C(F)(F)F)c3)Cc3ccccc3)CC2)cc1 (configuration not stated)	i	0.12
COc1cc(NC(=O)c2cccc(F)c2)ccc1NC(=O)c1cc2ccccc2o1	i	0.03
CCOc1ccc(NC(=O)CNC(=O)c2ccco2)cc1	i	-0.01
N#CC1=C(SCC(N)=O)NC2=C(C(=O)c3ccccc32)C1c1ccc(Cl)cc1 (configuration not stated)	i	-2.7
CCn1c(SCc2nc(-c3ccccc3)no2)nnc1-c1ccco1	i	2.3
COc1ccc(CCNC(=O)[C@@H](NC(=O)N2CC(=O)Nc3ccccc32)C(C)C)cc1OC	i	1.5
O=C(CNC(=O)c1ccncc1)N/N=C/c1cc(Br)ccc1O	i	-0.72
COc1ccccc1NC(=O)Nc1nc(CC(=O)N2CCN(c3ccccc3OC)CC2)cs1	i	-0.1
COC(=O)COc1ccc(S(=O)(=O)N2CCN(c3ccc(OC)cc3)CC2)cc1	i	0.34
Cc1ccccc1C(=O)Nc1nnc(-c2ccncc2)o1	i	2.5
CCCCCCN1CC(O)=C(c2ccccc2)C1=N	i	2.4
COc1cccc(N/C=C(\C#N)c2ccc(OCCCF)cc2)c1	i	-1.6
CCC(=O)NCc1csc(-c2cccs2)n1	i	-0.74
O=S(=O)(c1ccc(F)cc1)N1CCN(c2nc(-c3ccc(F)cc3)cs2)CC1	i	1.7
COc1ccc(Cn2nnnc2C(c2cccs2)N2CCN(c3ccccc3)CC2)cc1 (configuration not stated)	i	-1
Cc1ccc(C)c(S(=O)(=O)Nc2ccccc2C(=O)Nc2ccccc2N2CCOCC2)c1	-6*	0.94*
CCc1ccc(NC(=S)N(Cc2ccc(Cl)cc2)Cc2ccc(C(=O)O)cc2)cc1	i	0.56
CCCCCCNCC(=O)N1CCC(Cc2ccccc2)CC1	i	0.27
O=C(NCc1ccco1)c1cc(Cl)nc(Cl)c1	i	-2.4
COc1ccc([N+](=O)[O-])cc1NC(=O)CSc1nccc(C)n1	i	0.11
COc1ccc(OC)c(S(=O)(=O)NC2CCCCNC2=O)c1 (configuration not stated)	i	1.3
Cc1cccn2c(NC(=O)c3cccs3)c(-c3ccccc3)nc12	i	0.97
COC(=O)C1CCN(C(=O)CC(NC(=O)C(F)(F)F)c2cccs2)CC1 (configuration not stated)	i	-0.02
O=C(CN1C(=O)S/C(=C\C=C\c2ccccc2)C1=O)Nc1ccc(C(=O)O)cc1	i	-1.1
CCOc1cc(N2CCOCC2)c(OCC)cc1NC(=O)COC(=O)[C@H](Cc1c[nH]c2ccccc12)NC(C)=O	i	-1.9
COC(=O)C(N)Cc1ccc(O)c(O)c1 (configuration not stated)	i	0.08
Cc1ccccc1CCNC(=O)C1CCC(=O)N(CCc2cccc(F)c2)C1 (configuration not stated)	i	0.46
COC(=O)c1nn(-c2ccccc2)c(=O)cc1Sc1ccc(Cl)cc1	i	-0.16
CC(NC(=O)Cn1cnnn1)C12CC3CC(CC(C3)C1)C2 (configuration not stated)	i	0.06
Cc1cccc(/C=C/C(=O)c2ccc([N+](=O)[O-])o2)c1	i	-0.03
CC1CCC(NC(=O)c2ccc(NC(=O)c3ccc(=O)[nH]c3)cc2)CC1 (configuration not stated)	i	-1.2
Cc1ccccc1-c1nc2cc(N)ccc2o1	i	-0.62
CN1CCN(CCCCOc2ccc(F)cc2)CC1	i	2.9
O=C(NCSc1ccncn1)c1ccccc1	i	1.4
O=C(CCn1c(=O)sc2ccccc21)NC1CCCCC1	i	1.9
COc1ccc(CCNc2cc(C)nc3c(-c4ccc(Cl)cc4)c(C)nn23)cc1OC	i	-0.21
COc1cc(-c2nc3ccccc3c(=O)n2N)cc(OC)c1OC	i	1.1
Cc1cccc(OCCOCCSc2ncccn2)c1	i	-0.27
CC(C)CCNc1nnnc2c1sc1nc(N3CCOCC3)c3c(c12)CC(C)(C)SC3	i	1.2
CSc1nc2nc(C)c(C/C=C/c3ccccc3)c(=O)n2[nH]1	i	1.4
O=C(COc1ccc(F)cc1Br)NCc1ccccn1	i	-0.84
(list continues)
SMILES	KCNQ2 block	KCNQ2 block baseline
COc1cccc(C(=O)/C=C/Nc2ccc(NC(C)=O)cc2)c1	i	-0.62
CC(C)c1ccc(C(C(=O)NC2CCCC2)N(C(=O)c2csnn2)C2CC2)cc1 (configuration not stated)	i	1.3
COc1ccccc1N1CCN(/N=C/c2cc(OC)c(OC)c(OC)c2)CC1	i	-2.2
O=C(CN1C(=O)c2cccc3cccc1c23)N1CCc2ccccc2C1	i	0.03
Cc1[nH]c2c(ccc3ccccc32)c1C1C(CCN)C1(C)C (configuration not stated)	i	0.06
S=c1[nH]nc(-c2cccnc2)n1-c1ccc2c(c1)OCCO2	i	-0.71
C1CCc2c(nc3nnnn3c2NC2CCCC2)C1	i	-1.4
CC(C)(C)NC(=O)c1cnn(-c2ccccc2)c1NC(=O)c1ccccc1	i	-1.3
CC(C)(C)CN1CCN(CC#Cc2ccccc2)CC1CCO (configuration not stated)	i	-1.8
CCCCNS(=O)(=O)c1ccc(NC(=O)Cc2ccccc2[N+](=O)[O-])cc1	i	-0.63

5 consecutive compounds out of the list so far:
SMILES	KCNQ2 block	KCNQ2 block baseline
S=c1[nH]nc(-c2cccnc2)n1-c1ccc2c(c1)OCCO2	i	-0.71
C1CCc2c(nc3nnnn3c2NC2CCCC2)C1	i	-1.4
CC(C)(C)NC(=O)c1cnn(-c2ccccc2)c1NC(=O)c1ccccc1	i	-1.3
CC(C)(C)CN1CCN(CC#Cc2ccccc2)CC1CCO (configuration not stated)	i	-1.8
CCCCNS(=O)(=O)c1ccc(NC(=O)Cc2ccccc2[N+](=O)[O-])cc1	i	-0.63

Full records as entered above. Order of screens: KCNQ2 block | KCNQ2 block baseline
Cc1[nH]c2c(ccc3ccccc32)c1C1C(CCN)C1(C)C (configuration not stated) in the list: i | 0.06
COc1ccccc1N1CCN(/N=C/c2cc(OC)c(OC)c(OC)c2)CC1 in the list: i | -2.2
CC(C)(C)NC(=O)c1cnn(-c2ccccc2)c1NC(=O)c1ccccc1 in the list: i | -1.3
CC(C)c1ccc(C(C(=O)NC2CCCC2)N(C(=O)c2csnn2)C2CC2)cc1 (configuration not stated) in the list: i | 1.3

Continuation.
SMILES	KCNQ2 block	KCNQ2 block baseline
COCCCN1C(=O)C(O)=C(C(=O)c2ccco2)C1c1ccc(Br)cc1 (configuration not stated)	i	-0.21
NC(=O)c1c(NC(=O)C(=O)NCCCN2CCOCC2)sc2c1CCCC2	i	-0.75
COC(=O)c1ccc(COc2ccc(C#N)cc2)o1	i	1.5
Cc1cc(S(=O)(=O)N(Cc2ccc(C(C)C)cc2)CC2CCCO2)ccc1-n1cnnn1 (configuration not stated)	i	1.7
CC(C)c1nnc2c(N(C)S(=O)(=O)c3ccccc3)nc3ccccc3n12	i	-1.3
CCN(CC(=O)Nc1c(F)cccc1F)C(=O)c1cc(S(=O)(=O)N(CC)CC)ccc1N1CCCCC1	i	-1
Cc1ccc(Cn2ccc(NC(=O)c3cc(-c4ccco4)on3)n2)cc1	i	0.65
Cc1cccc(-c2nc(C#N)c(N3CCCCC3)o2)c1	i	0.02
CCN(CC(=O)Nc1c(F)cccc1F)C(=O)CSc1ccc(F)cc1	i	0.05
COc1ccc(NC(=O)c2csc(Cc3ccc(Cl)cc3)n2)cc1	i	2.4
C/C(=N\Nc1ccc(Cl)c(C(=O)O)c1)c1ccc[nH]1	i	0.81
COc1ccccc1C(O)(c1ccccc1)C(CN1CCOCC1)c1ccccc1 (configuration not stated)	i	-0.25
CCn1c(C)csc1=NC(=O)c1ccccc1O	i	0.04
O=c1c(-c2cnn(-c3ccccc3)c2)coc2cc(O)ccc12	i	0.86
Cc1nc(-c2ccccc2)sc1C1(C)CC(c2ccccc2F)=NO1 (configuration not stated)	i	1.2
Nc1nc(CSc2nc3ccccc3[nH]2)nc(N2CCOCC2)n1	i	-0.14
O=C1c2cccc3cc(Br)cc(c23)C(=O)N1Nc1ccccc1	i	0.36
CSc1nc(NCc2ccccc2)c2c3c(sc2n1)CN(C)CC3	i	3.8
O=C(COC(=O)c1n[nH]c2ccccc12)NC(=O)NCc1ccco1	i	-0.4
CSCCC(NC(=O)c1ccco1)C(=O)OCC(=O)N(Cc1ccccc1)C(C)(C)C (configuration not stated)	i	1.8

Compound activity: PubChem, Johns Hopkins Ion Channel Center
